TRPML1 ag: agonists of human TRPML1 channel; Q9GZU1; TRPML1-expressing cells, Ca2+ dye fluorescence, FDSS; host cell line not named in the record; reference of the full effect not given here; activation, % (no concentration beside the values); hit rate 0.12% among 410,000; AID 624414; in the data active = activation above about 50%; inconclusive = about 30% to 50%; inactive = below about 30%; note: 0% is about no effect; the text of the record puts the active cut at 80%
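Tet-induced TRPML1-DL cells, 1,500 per well, cultured overnight, were loaded with a no-wash Ca2+ dye for 45–90 min. Calcium fluorescence was recorded on the FDSS for 110 s after compound addition, before the EC80 agonist (4 uM 54-4) was added.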
TRPV1 potentiator: human TRPV1 potentiation. TRPV1-expressing cells, Fluo-8 calcium influx, capsaicin EC20 potentiation; host cell line not named in the record; control for the full effect not named in the record. potentiation, % at 8.33 µM. hit rate 0.02% among 320,000. Q8NER1; active means potentiation above 80%; inconclusive means 30% to 80%; inactive means below 30%; note: 0% is about no effect
Target sequence (Q8NER1 whole entry, looked up): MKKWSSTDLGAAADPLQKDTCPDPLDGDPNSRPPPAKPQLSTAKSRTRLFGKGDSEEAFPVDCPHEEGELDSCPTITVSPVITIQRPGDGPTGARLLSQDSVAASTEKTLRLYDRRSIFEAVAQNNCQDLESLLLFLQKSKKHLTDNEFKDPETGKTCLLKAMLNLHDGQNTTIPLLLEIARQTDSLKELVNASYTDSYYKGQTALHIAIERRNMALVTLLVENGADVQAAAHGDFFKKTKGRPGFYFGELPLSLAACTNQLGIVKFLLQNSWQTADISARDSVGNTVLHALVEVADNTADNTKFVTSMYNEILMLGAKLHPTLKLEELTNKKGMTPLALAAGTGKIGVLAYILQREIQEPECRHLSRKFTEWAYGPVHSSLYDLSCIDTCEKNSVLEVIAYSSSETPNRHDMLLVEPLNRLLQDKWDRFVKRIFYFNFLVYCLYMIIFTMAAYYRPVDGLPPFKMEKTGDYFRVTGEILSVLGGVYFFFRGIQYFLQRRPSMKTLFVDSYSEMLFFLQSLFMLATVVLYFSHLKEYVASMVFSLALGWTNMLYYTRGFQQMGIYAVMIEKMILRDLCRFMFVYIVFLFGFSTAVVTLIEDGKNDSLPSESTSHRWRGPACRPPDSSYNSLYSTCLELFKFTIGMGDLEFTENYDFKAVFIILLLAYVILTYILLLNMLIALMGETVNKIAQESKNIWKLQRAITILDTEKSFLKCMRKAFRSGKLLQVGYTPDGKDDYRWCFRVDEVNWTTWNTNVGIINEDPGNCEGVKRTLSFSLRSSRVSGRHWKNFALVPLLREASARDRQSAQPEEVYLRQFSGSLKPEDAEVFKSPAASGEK
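TRPV1-expressing cells were cultured overnight at 35.5C and loaded with Fluo-8 calcium dye for 40 to 90 min at room temperature. After a 10 s baseline, compound was added and calcium influx was read kinetically for 3 min (ex 480/em 520 nm).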
D2 potentiator: positive allosteric modulators of human D2 dopamine receptor | P14416 | DiscoveRx D2 beta-arrestin cells, luminescence, 90 min; 100% = 57 uM dopamine signal | potentiation, % (no concentration beside the values) | hit rate 0.23% among 360,000 | AID 624464; active = potentiation of 50% or more; inconclusive = 30% to 50%; inactive = 30% or less;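 note: compound concentration not given in the record; tested on top of an EC20 dose of dopamine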
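PathHunter beta-arrestin assay in DiscoveRx D2 cells. Compounds were added with an EC20 of dopamine (50 nM final) for 90 min at 37 deg C. Luminescence was read 1 h after detection reagent, with 57 uM dopamine as the EC100 control.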
TRPML1 inh: blocks the human TRPML1 channel. Q9GZU1. TRPML1-inducible cells, Ca2+ dye fluorescence, FDSS; hits give low values; inhibition of EC80 agonist-evoked calcium signal. activity change, negative = inhibition, % (concentration not given with the values). hit rate 0.02% among 390,000; in the data active means activity change below about -50%; inconclusive means about -30% to -50%; inactive means above about -30%;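 note: stimulus is agonist 54-4 at its EC80 concentration; % is set by controls: 0 for no effect and ±100 for the full control effect; compound concentration not given in the record; the text of the record puts the active cut at -80%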
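TRPML1-DL cells, Tet-induced overnight (~16 h, 37 °C) at 1,500 cells/well, were loaded with Ca8 no-wash dye plus quencher for 45-90 min at room temperature. Compounds were pinned during FDSS kinetic reading; agonist 54-4 at EC80 (4 uM final) then added.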
Six1-Eya2 inh: blocks human Six1 binding to Eya2. Q15475+O00167. AlphaScreen GST-Six1/His-Eya2 binding, biochemical; hits give low values; control for the full effect not named in the record. activity change, % (no concentration beside the values). hit rate 0.56% among 360,000. AID 651725; in the data active = activity change below about -65%; inconclusive = about -30% to -65%; inactive = above about -30%; note: % is set by controls: 0 for no effect and ±100 for the full control effect; compound concentration not given in the record
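Compounds are tested against tagged Six1 and Eya2 proteins bridged by glutathione donor and nickel acceptor beads; after a one-hour incubation at 37 °C without light, AlphaScreen emission is recorded.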
CtBP-E1A blk: inhibitors of CtBP/E1A interaction; hit rate 0.49% among 340,000; AlphaScreen GST-E1A/His-CtBP binding, 1536-well; hits give low values; control for the full effect not named in the record; activity change, % (concentration not given with the values); AID 651724; in the data active means activity change below about -65%; inconclusive means about -30% to -65%; inactive means above about -30%; note: % is set by controls: 0 for no effect and ±100 for the full control effect
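Protein mix (5X: 125 nM each GST-E1A, His-CtBP) was incubated with pinned compound 2 h at 37 deg C in dark, in 50 mM Tris pH 8.0 buffer with 300 mM NaCl. Glutathione donor and nickel acceptor beads followed; AlphaScreen signal read after 1 h.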
Active calls of the source: *; ? = inconclusive; nt = not tested or not shown; & = joins results of further samples.

Below each compound: TRPML1 ag	TRPV1 potentiator	D2 potentiator	TRPML1 inh	Six1-Eya2 inh	CtBP-E1A blk
N/C(=N\OC(=O)c1ccc([N+](=O)[O-])cc1)c1ccc(Br)cc1
 : -0.6	29	7	-2	0	4
Nc1nc2ccc(Cl)cc2cc1C(=O)NCCc1c[nH]c2ccccc12
 : -0.9	nt	nt	nt	-15	-7
CCc1nnc(N2C(=N)SCC2=O)s1
 : 0.1	4	0	-9	5	1
O=C(Cc1ccccc1)NCC(=O)N1CCc2ccccc2C1
 : -0.6	3	-9	0	7	4
CCc1[nH]nc(C(=O)N2CCCC(CNS(=O)(=O)c3cccs3)C2)c1C (stereo not given)
 : 0.3	23	-7	-6	9	-1
N#CCc1c(C#N)c(N)nc(N2CCN(S(=O)(=O)c3ccccc3)CC2)c1C#N
 : -0.8	28	8	-16	-9	-2
CC1CCCN(C(=O)COC(=O)/C=C/c2ccc(C(F)(F)F)cc2)C1 (stereo not given)
 : 0.6	-51	-5	16	-3	nt
OC1C2CN3CCN(C2)CC1(Cc1ccccc1)C3 (stereo not given)
 : -0.8	-7	8	-10	10	5
CCN1CCc2c(sc(NC(=O)Cc3ccccc3)c2C(=O)OC)C1
 : -0.2	26	-12	11	-15	-4
COC(=O)C1=CN(C)C=C(C(=O)OC)C1c1ccsc1
 : -1.7	-6	-6	-18	3	-2
C=CCn1c(CCNC(=O)c2ccccc2F)nnc1SCc1nc2ccccc2c(=O)[nH]1
 : -0.2	-17	-12	-1	19	43
Cc1ccc(O)c(N)c1
 : 0.0	7	-27	6	1	-10
CC(=O)N1N=C(c2ccco2)CC1c1ccc(C)cc1 (stereo not given)
 : -0.4	2	-3	15	-14	16
CC(=O)c1ccc(N2CCN(C(=O)c3cc4c(s3)CCCC4)CC2)cc1
 : -0.5	-5	-7	20	1	-11
CC(=O)Nc1ccc(S(=O)(=O)Oc2ccccc2N2C(=O)C3C4CCC(C4)C3C2=O)cc1 (stereo not given)
 : -0.1	8	-7	-2	3	-22
Cc1nnc(NC(=O)CCC2CCCCC2)s1
 : -0.2	nt	-4	-8	-8	5
O=C1CCCN1CCCNS(=O)(=O)c1ccc(Br)cc1
 : -0.1	-4	-6	-7	6	7
CC1=C(C(=O)N(C)C)CC(CC(=O)NCC2CCCCC2)C(=O)N1CCCN1CCCC1=O (stereo not given)
 : -0.6	nt	0	0	12	3
COc1ccc(OC)c2nc3c(C(=O)NCCN(C)C)cccc3nc12
 : 0.2	nt	-21	-2	?	?
CCCCn1nc(NC(=O)c2cccs2)c2cc3ccccc3nc21
 : 0.2	3	-5	17	43	55
CCOc1ccc(NC(=O)CN(C)C(=O)C2=COCCO2)cc1OCC
 : -0.1	0	-9	-21	-4	0
C[C@H](CO)N1C[C@H](C)[C@@H](CN(C)C(=O)NC2CCCCC2)Oc2ccc(NC(=O)NC3CCCCC3)cc2C1=O
 : -0.9	nt	-1	3	0	0
Cc1onc(-c2ccccc2)c1C(=O)NC(C)C1CCCO1 (stereo not given)
 : 0.1	7	-5	-8	3	4
Cc1cccn2c(=O)c3cc(C(=O)NCCc4ccccc4)c(=N)n(Cc4ccco4)c3nc12
 : 1.6	-6	-6	8	-15	0
O=C(Nc1sc2c(c1C(=O)O)CCCC2)c1cccs1
 : 0.0	-21	-17	23	-25	?
COC(=O)c1nccnc1N
 : 0.0	nt	-10	27	7	-2
O=C(Cc1c(F)cccc1Cl)OCC(=O)c1ccc[nH]1
 : -0.6	nt	-18	-7	7	5
C[C@H](N)C(=O)OCc1ccc([N+](=O)[O-])cc1
 : 0.2	7	5	-19	5	nt
CC(C)(C)c1nc2ccc(Cl)cn2c1CC1CCCCC1
 : 4.7	nt	-10	-19	27	0
COC(=O)CC(NS(=O)(=O)c1cccs1)c1ccccc1Cl (stereo not given)
 : 1.1	12	-5	9	8	-1
COCc1nnc(NC(=O)c2ccc(S(=O)(=O)N(C)C3CCCCC3)cc2)o1
 : -1.1	6	9	2	-14	-18
Cc1cnc(Sc2ncccc2[N+](=O)[O-])nc1
 : 0.1	nt	2	9	10	10
COC(=O)c1ccccc1NC(=O)N1CCN(c2ccccc2F)CC1
 : 1.2	-20	-3	-1	7	3
CC(=O)N/C(=C\c1ccccc1)C(=O)OCc1cc(C)ccc1C
 : -0.4	29	4	2	-1	-1
O=C(CSc1ccc(-c2cccs2)nn1)Nc1ccccc1
 : 1.2&2.4	?	8	-1&-11	16	22
O=C(CN(Cc1ccco1)C(=O)CNS(=O)(=O)c1ccccc1)NCc1ccc(F)cc1
 : -0.3	10	-2	-2	6	-1
CN(C)NC1CC(=O)N(c2ccccc2)C1=O (stereo not given)
 : 1.1	-6	0	2	-16	2
O=C(Cc1ccc(Br)cc1)Nc1cccc(-c2cn3c(n2)SCC3)c1
 : 0.5	4	-2	2	-13	2
Cc1noc(C)c1NC(=O)Nc1cccc2c1O[C@H](CN(C)C(=O)Nc1ccc(C(F)(F)F)cc1)[C@@H](C)CN([C@H](C)CO)C2=O
 : -0.4	nt	-1	8	-9	-2
COC(=O)c1ccccc1NC(=O)CSc1nc2ccsc2c(=O)n1CCCCC(=O)O
 : 0.6	nt	-4	0	1	-18
O=C(CNC(=O)Cc1ccccc1)NCC(=O)OCC(=O)c1ccc(Cl)cc1
 : 1.1	-11	-10	-2	10	-16
CC(C)(C)NC(=O)COC(=O)/C=C/c1ccccc1[N+](=O)[O-]
 : -0.8	28	-2	-1	-3	-1
O=C(COc1ccc2ccccc2c1)NCCNC(=O)COc1ccc2ccccc2c1
 : 1.0	1	-15	30	10	1
COc1ccc(NC(=O)c2ccccc2NC(=O)CSc2ccc(C)cc2)cc1
 : 1.1	-11	-8	-1	3	10
CCCCC(=O)Nc1c2c(nn1-c1ccc(C)cc1)CS(=O)(=O)C2
 : 1.0	20	-10	16	7	4
Cc1sc2nc(CN(Cc3ccccc3)C(=O)NC3CCCCC3)[nH]c(=O)c2c1C
 : 1.3	nt	-20	-7	-11	-9
COc1ccc(C(=O)CN2CCN(c3cc(C)nc4ccccc34)CC2)cc1
 : 0.3	-5	-14	22	0	2
CC1CCCCN1c1ncnc(N)c1[N+](=O)[O-] (stereo not given)
 : -0.2	27	-3	-2	6	16
Cc1ccc(Nc2cc(=O)n(C3CCCCC3)c(=O)[nH]2)cc1C
 : -0.1	1	-6	-8	5	-3
CC(C)C(=O)Nc1ccc(N2CCN(S(C)(=O)=O)CC2)cc1
 : 5.1	12	-5	7	2	-1
COc1ccccc1CNC(=O)COC(=O)c1sc(C)nc1C
 : -1.0	2	-4	-8	0	nt
CCC(C)NCCCCOc1cc(C)cc(C(C)C)c1 (stereo not given)
 : 0.5	-4	-12	0	13	5
CC(N)c1csc(Nc2ccc(C(=O)c3ccccc3)cc2)n1 (stereo not given)
 : -0.5	nt	-8	nt	-2	-27
COc1cccc(C(=O)NC(=S)Nc2ccc(Cl)cc2C(=O)O)c1
 : 0.0	-2	-4	14	2	0
CCOc1cc2[nH]c(=S)n(CCCC(=O)NCc3ccco3)c(=O)c2cc1OCC
 : -0.2	13	-10	7	0	4
O=C(CCCC(=O)c1ccc(O)cc1)c1ccc(O)cc1
 : 0.2	4	9	-21	9	6
O=C(Cc1ccccc1)N1CCN(c2ccccc2F)CC1
 : -0.1	-31	-2	-1	1	2
CC(=O)CSc1nc2nccnc2[nH]1
 : -0.6	nt	-7	-3	-3	8
CCOc1ccccc1CN(Cc1ccco1)S(=O)(=O)c1ccc(-n2cnnn2)c(OC)c1
 : 2.7	-1	2	16	-5	-3
COc1ccc(C(=O)NC(=S)Nc2cccnc2)cc1OC
 : 0.0	0	-11	2	-4	2

The listing continues.
Below each compound: TRPML1 ag	TRPV1 potentiator	D2 potentiator	TRPML1 inh	Six1-Eya2 inh	CtBP-E1A blk
CN(C)C(=O)c1nc2ccccc2s1
 : -1.1	11	3	-3	0	9
CC(C)CN1CCC(=O)N([C@H](CO)Cc2ccccc2)CC1
 : 0.3	0	0	-12	13	nt
COc1ccc(NC(=O)c2cc(F)cc(F)c2)cc1S(=O)(=O)N1CCCCC1
 : -1.2	nt	-4	13	-1	-1
OC(c1ccc(Cl)c(F)c1)c1ncc(-c2ccc(Oc3ccccc3)cc2)[nH]1 (stereo not given)
 : -0.5	nt	-14	nt	11	-29
O=S(=O)(c1cnccc1N1CCN(CCO)CC1)N1CCCCC1
 : 0.6	2	-7	4	-3	4
COc1ccc(OC)c(CCNC(=O)CN2C(=O)COc3ccc(S(=O)(=O)N4CCOCC4)cc32)c1
 : -1.2	-2	-8	8	-1	-12
O=C(c1cc(-c2ccc3c(c2)OCO3)on1)N1CCCCC1
 : -0.7	-9	2	6	-2	1
O=c1cc(-c2ccc(O)cc2)oc2cc(O)c([C@@H]3O[C@H](CO)[C@@H](O)[C@H](O)[C@H]3O)c(O)c12
 : 0.1	nt	-2	9	-20	4
Cc1ccc(OCC(=O)c2cc(C)n(C3CC3)c2C)c([N+](=O)[O-])n1
 : 0.1	-6	-1	9	-27	1
CC(=O)n1cc(/C=N/NC(=O)c2ccccc2Cl)c2ccccc21
 : 1.4	28	-1	-8	0	-8
COc1ccc(C(=O)N/C(=C\c2ccccc2)C(=O)Nc2ccc(C(=O)NCC(=O)O)cc2)cc1
 : -0.5	3	-12	-1	-4	0
COCCN(CCOC)S(=O)(=O)c1ccc(OC)cc1
 : -0.5	15	-5	-3	4	4
